Vaccinia Venus: inhibitors of vaccinia virus (Venus reporter). AID 720580. Vaccinia virus Venus reporter expression, fluorescence. 0.46% of 330,000 active. Potency, µM (series often up to 36.5 µM), without a hit: at the top dose activity change, negative = inhibition, actives largely listed as inhibitors; active means well fitted inhibition curve with a large enough effect; inconclusive means small, poorly fitted or top-dose-only effect; inactive means no such curve, though single readings can be large or run the other way; tested in A549 cells; also: nearly all actives have a fitted effect of over 30% in size; inactives centre near -10
VACV mCherry inh: vaccinia inhibition (mCherry reporter) | 0.63% of 310,000 active | Vaccinia virus mCherry reporter infection, fluorescence; about a quarter of the inactives have no number | Potency, µM (series often up to 36.5 µM), for the others: top-dose activity change, negative = inhibition, usual class: inhibitors; active = well fitted inhibition curve with a large enough effect; inconclusive = small, poorly fitted or top-dose-only effect; inactive = no such curve, though single readings can be large or run the other way; tested in A549 cells; also: nearly all actives have a fitted effect of over 35% in size; inactives centre near -10
An asterisk follows results filed as active; i = inactive; ? = inconclusive; . = not tested or not shown; & = joins results of further samples; [ ] = remark or other dose. % is scaled to controls: 0 for no effect and ±100 for the full control effect; potency is read from the fitted curve at half-maximal effect.

SMILES	Vaccinia Venus	VACV mCherry inh
Cn1c(=O)[nH]c2cc(Cl)cnc21	-16%	.
O=c1cc(N2CCCCC2)[nH]c(=O)n1C1CCCCC1	-18%	i
COc1ccc2c(c1)c(C(=O)N/N=C/c1ccc(O)c(O)c1)c(C)n2C	-8%	-9%
CN(C)Cc1ccccc1Sc1ccc2c(c1)CCCC2	-19%	-22%
O=C(O)C1CC(c2ccccc2)=NO1 (configuration not stated)	-4%	-6%
CCNC(=O)C1(C)CCCN(Cc2noc(-c3ccccc3OC)n2)C1 (configuration not stated)	-11%	-14%
Cc1ccc(NC(=O)c2ccc(CNc3c(N4CCC(C)CC4)c(=O)c3=O)cc2)cc1	-5%	19%
Cn1c(SCC#N)nnc1-c1cccnc1	2%	-4%
Cc1cc(C)n(-c2nc(Nc3ccccc3C(F)(F)F)nc(-n3nc(C)cc3C)n2)n1	13µM*	.
CCN(CC)C(=O)C1=C(C)Nc2nc3ccccc3n2C1c1cccc(Cl)c1 (configuration not stated)	-9%	-17%
Cc1c(OCC(=O)N[C@H](C(=O)O)c2ccccc2)ccc2c3c(c(=O)oc12)CCCC3	1%	-5%
NC(COCc1ccccc1)c1csc(Nc2ccccn2)n1 (configuration not stated)	2%	-9%
COc1ccc(Cl)cc1NC(=S)N(Cc1ccccc1C)CC1CCC(C(=O)O)CC1 (configuration not stated)	-12%	i
COc1ccc(-c2cc(C(=O)Oc3cccc(C)c3C)c3ccccc3n2)cc1	-9%	-15%
O=C(Nc1cc(S(=O)(=O)N2CCCCC2)ccc1Cl)c1ccc(F)cc1	-22%	-5%
CCCc1c(-c2ccccc2F)ncn1CCc1ccccc1OC	-16%	-26%
COc1ccc(CNC(=O)C2Cc3cc(S(=O)(=O)N4CCCC4)ccc3N2C(C)=O)c(OC)c1 (configuration not stated)	-10%	-13%
CN1CC(=O)N(CC(=O)Nc2ccc(F)cc2)c2ccccc2C1=O	-5%	-10%
Cc1ccccc1C(=O)NC(=S)N(CCO)Cc1ccccc1	-8%	-19%
O=C(NCc1ccccc1)c1cc(C2CCCCN2S(=O)(=O)c2cccs2)on1 (configuration not stated)	-2%	i
CCCCn1c(=O)nc2n(-c3ccc(Br)cc3)c3ccccc3cc-2c1=O	-5%	-6%
COc1ccccc1CN1C(=O)C(C)ON=C1c1ccccc1F (configuration not stated)	-1%	i
CCC(COC(=O)Nc1ccccc1)NC(=O)OC(C)C (configuration not stated)	5%	i
CC1CCN(C(=O)CSc2nnc(CSc3ncccn3)n2C)CC1	-8%	-7%
O=C(c1ccc(-n2cncn2)c([N+](=O)[O-])c1)N1CCN(S(=O)(=O)c2ccccc2Br)CC1	-21%	-7%
CCC1(c2ccc(F)cc2)NC(=O)N(CC(=O)N2c3ccccc3NC(=O)C2(C)C)C1=O (configuration not stated)	-5%	-21%
O=C(Nc1cccc(C(=O)O)c1)/C(=C/c1cccc([N+](=O)[O-])c1)NC(=O)c1cccc(Br)c1	-5%	-13%
O=S(=O)(NC1CCCCC1)c1ccc(Cl)nc1	-15%	0%
CCC(=O)N1CCCc2cc(S(=O)(=O)N3CCC(C(=O)Nc4ccccc4CC)CC3)ccc21	-16%	-14%
CSc1ccccc1-c1nnc(-c2ccccc2)o1	-5%	.
CC(C)S(=O)(=O)c1csc(C(=O)Nc2ccc(F)cc2)c1N	-21%	?
Cc1ccc(NC(=O)CSc2n[nH]c(-c3ccncc3)n2)cc1C	-5%	-17%
O=C(CC12CC3CC(CC(C3)C1)C2)NC(=S)NCc1ccccc1	1%	-12%
CCCc1ccc(OCc2ccc(C(=O)N3CCN(c4ccccn4)CC3)o2)c(OC)c1	-18%	-19%
CC(=O)N[C@@H](CC(C)C)C(=O)O	-6%	-3%
Cc1cc(SCC(=O)O)nc2ccccc12	-1%&5%	i
Cc1ccc(N2C(=O)CC(Sc3ncn[nH]3)C2=O)cc1 (configuration not stated)	3%	-9%
O=C(NCCCN1CCN(c2ccc(F)cc2)CC1)c1sc2ncccc2c1-n1cccc1	-8%	-9%
COc1ccc(N2CCSC2C(=O)NN)cc1 (configuration not stated)	-4%	.
CN(C)CCN(C(=O)CCS(=O)(=O)c1ccccc1)c1nc2cc3c(cc2s1)OCO3	?	?
CC(C)CN(C(=O)CCC(=O)OCC(=O)N(C)c1ccccc1)c1c(N)n(CC(C)C)c(=O)[nH]c1=O	-5%	-10%
CN1CC(=O)N(CC(=O)NC2CCCCC2)C1=O	2%	-9%
Cc1ccc(C(=O)N/C(=C/c2ccco2)C(=O)Nc2cccc(C)c2)cc1	-7%	-14%
COc1ccc(-c2ccc(C(=O)NCc3ccc(C(F)(F)F)cc3)c3occc23)c(C)c1	-3%	6%
CC(C)Sc1ncc(Cl)c(C(=O)Nc2ccc(S(=O)(=O)N3CCCCC3)cc2)n1	-26%	-19%
CN1C(=O)/C(=C/c2ccc(OCc3cccc(F)c3)cc2)NC1=S	0%	-14%
COc1cccc(CNC(=O)C2CCN(c3ncnc4c3nc3n4CCCCC3)CC2)c1	-12%	-13%
CCS(=O)(=O)N1CCN(S(=O)(=O)c2ccccc2)CC1	-9%	i

Four entries from above, set out differently:
COc1ccc(N2CCSC2C(=O)NN)cc1 (configuration not stated)
  Vaccinia Venus = -4%; VACV mCherry inh = .

CN(C)CCN(C(=O)CCS(=O)(=O)c1ccccc1)c1nc2cc3c(cc2s1)OCO3
  Vaccinia Venus = ?; VACV mCherry inh = ?

CC(C)CN(C(=O)CCC(=O)OCC(=O)N(C)c1ccccc1)c1c(N)n(CC(C)C)c(=O)[nH]c1=O
  Vaccinia Venus = -5%; VACV mCherry inh = -10%

CN1CC(=O)N(CC(=O)NC2CCCCC2)C1=O
  Vaccinia Venus = 2%; VACV mCherry inh = -9%

Next section
SMILES	Vaccinia Venus	VACV mCherry inh
O=c1[nH]c(C2CCCN(S(=O)(=O)c3ccccc3)C2)nc2c1nnn2Cc1cccc(Cl)c1 (configuration not stated)	?	?
Cc1nn(CCCC(=O)NCc2ccc(F)cc2)c(=O)c2nccn12	-6%	i
O=C(CCSc1ccccc1)NC1CCCC1	-17%	-19%
Cc1cc(OC(C)C(=O)N(Cc2cccs2)C2CCS(=O)(=O)C2)ccc1Cl (configuration not stated)	-18%	i
Cc1sc2ccccc2[n+]1CCCCBr	?	7.1µM*
COc1cccc(C(=O)Nc2nnc(-c3ccccc3)s2)c1	-25%	-1%
Cn1c(CCNC(=O)c2ccccc2Cl)n[nH]c1=S	-11%	.
CCCCOCCCNC(=O)C[C@@H]1C[C@@]2(C(=O)OCC)CCCC=C2N(Cc2ccco2)C1=O	-5%	-13%
CC(=O)c1ccc2c(c1)C1C(Cl)C(Sc3ccccc3[N+](=O)[O-])CC1C(C(=O)O)N2 (configuration not stated)	-3%	6%
O=C(NCCN1C(=O)S/C(=C\c2ccc(OC(F)F)cc2)C1=O)[C@@H]1CCCN1C(=O)c1cccs1	-17%	-9%
CCOC(=O)Cn1nnnc1C(CC)N(Cc1cccs1)Cc1cc2ccc(OC)cc2[nH]c1=O (configuration not stated)	-11%	-24%
C=CCn1c(CNC(=O)c2ccccc2C)nnc1SCC(=O)NC1CCCC1	0%	-16%
Cc1oc2c(C)c3oc(=O)c(CC(=O)N4CCCCC4)c(C)c3cc2c1C	-14%	-15%
Cc1c(O)c2ccccc2n(-c2ccccc2)c1=O	-5%	-16%
O=c1cc(Cc2ccc([N+](=O)[O-])cc2)[nH]c(=O)[nH]1	-1%	i
COc1ccc(/C=C2/C(=O)ON=C2C)cc1Cl	-5%	i
CN(CC(=O)Nc1cccc(F)c1)C(=O)c1ccc2c(c1)CC(c1ccccc1)OC2=O (configuration not stated)	-30%	-17%
COc1ccc(NS(=O)(=O)c2cccc(Cl)c2)cc1S(=O)(=O)N1CCCCC1	-2%	-11%
COc1ccc(C(=O)Nc2cc(Cl)ccc2C(=O)O)cc1	-11%	-3%
CC(C)c1ccc(CC(=O)N2CCC2(C)C(=O)NCc2cccc3ccccc23)cc1 (configuration not stated)	-21%	18%
CCc1cccc(NC(=O)CN2C(=O)CN=C(c3ccccc3F)c3cc(Cl)ccc32)c1	-21%	-29%
CN1c2ccc(C=O)c3c(C=O)ccc(c23)N(C)C1(C)C	200%[activator]	-20%
COc1ccc(NC(=O)N2C3CCCC2CC(NC(=O)c2ccccc2)C3)cc1 (configuration not stated)	-9%	-11%
Nc1c(-c2cccc([N+](=O)[O-])c2)nc2ccccn12	-5%	-22%

Quoted at random: 2 entries already listed, in no set order.
SMILES	Vaccinia Venus	VACV mCherry inh
O=c1cc(Cc2ccc([N+](=O)[O-])cc2)[nH]c(=O)[nH]1	-1%	i
COc1ccc(C(=O)Nc2cc(Cl)ccc2C(=O)O)cc1	-11%	-3%

Carrying on.
SMILES	Vaccinia Venus	VACV mCherry inh
CN(C(=O)CSc1nc2ccc(NC(=O)COc3ccc(F)cc3)cc2s1)c1ccccc1	?	?
O=C(NC(Cc1ccccc1)C(=O)O)/C(=C\c1ccccc1F)NC(=O)c1ccccc1 (configuration not stated)	-1%	3%
COc1ccc(OC)c(-c2cc(C(=O)NCc3ccc(Cl)cc3)no2)c1	0%	-3%
COc1ccc(C)cc1NC(=O)CCCN1C(=S)NC(C)(C)CC1C (configuration not stated)	-16%	-13%
CCCNC(=O)c1onc(CSc2ccncc2)c1C(=O)NCCC	-11%	i
CNC(C)[C@H](O)c1ccccc1 (some centres not stated)	-13%	i
Cc1n[nH]c(=S)n1/N=C/c1ccccc1OCc1ccc(Cl)cc1Cl	-2%	-5%
O=C(CCc1ccccc1)N[C@@H]1c2ccccc2CC[C@H]1OCc1ccccc1	-21%	i
Cc1ccc(CNC(=O)CCCc2nnc3n(CC(C)C)c(=O)c4sccc4n23)cc1	-4%	-10%
COc1ccc(CCNC(=O)COC(=O)c2cc(S(=O)(=O)N3CCOCC3)ccc2C)cc1OC	-14%	-4%
CCOC(=O)N1CCN(C(=S)Nc2ccc3nc(N4CCN(CC)CC4)cc(C)c3c2)CC1	1%	-10%
O=C(NN=C1CCCCC1)NC1CCCCC1	-25%	?
Cn1c(=O)c2c(ncn2CC(=O)Nc2cccc(Cl)c2Cl)n(C)c1=O	-11%	-8%
Cc1cccc(CCNC(=O)c2ccc3c(c2)N(Cc2ccccc2F)C(=O)c2ccccc2S3)c1	-14%	i
N#CCCN(C(=O)COc1ccc(C#N)cc1)c1ccc(F)cc1	-7%	-18%
CC(C(=O)NC(c1ccccc1)c1ccccc1)N1CCOCC1 (configuration not stated)	-3%	-1%
CC(C)c1ccc(NC(=O)C2CCCN(S(=O)(=O)c3ccc4[nH]c(=O)ccc4c3)C2)cc1 (configuration not stated)	?	?
COC(=O)C1=C(C(=O)OC)[C@@H]2Nc3ccccc3[C@@]23C[C@@H](C(=O)OC)N(C(=O)COCc2ccccc2)C3=N1	?	-2%
COc1ccc(S(=O)(=O)N2CCOC23CCN(S(=O)(=O)c2ccc(F)cc2)CC3)cc1	1%	i
Nc1ncc(-n2cncn2)c(-c2ccc(Cl)cc2)n1	-19%	i
COc1ccccc1Nc1nc(C)cc(C)c1C(N)=O	-16%	-18%
COc1ccc(S(=O)(=O)Nc2cc3c(C(=O)OC(C)C)c(C)oc3c3ccccc23)cc1	?	?
O=C(Cn1ccsc1=NC(=O)c1ccco1)c1ccccc1	-7%	-13%
O=C(CC(Nc1ccccc1Cl)C(=O)O)c1ccccc1 (configuration not stated)	-5%	-10%

One compound at a time, as listed above. Screens in order: Vaccinia Venus, VACV mCherry inh
`CC(C)c1ccc(NC(=O)C2CCCN(S(=O)(=O)c3ccc4[nH]c(=O)ccc4c3)C2)cc1` (configuration not stated) is listed with ?, ?
`O=C(Cn1ccsc1=NC(=O)c1ccco1)c1ccccc1` is listed with -7%, -13%
`N#CCCN(C(=O)COc1ccc(C#N)cc1)c1ccc(F)cc1` is listed with -7%, -18%
`CC(C(=O)NC(c1ccccc1)c1ccccc1)N1CCOCC1` (configuration not stated) is listed with -3%, -1%

New compounds follow
SMILES	Vaccinia Venus	VACV mCherry inh
Cc1ccc(NC(=O)C2CC(=O)N(CCc3ccccc3)C2)c(C)c1 (configuration not stated)	-19%	-3%
COc1ccc(NCc2cc3ccccc3[nH]c2=O)cc1	-10%	-16%
N#C/C(=C\c1ccccc1[N+](=O)[O-])C(=O)NCc1ccccc1	-3%	-14%
Brc1ccc(-c2nc3c4ccccc4ccn3c2Cc2ccccc2)cc1	-15%	-18%
COc1ccc(NC(=O)CC2SC(=Nc3ccccc3)NC2=O)c(OC)c1 (configuration not stated)	-8%	i
S=C(c1c[nH]c2ccccc12)N1CCOCC1	-5%	-12%
CN(C)S(=O)(=O)c1ccc2c(c1)N(CC(=O)N1CCN(c3ccccc3F)CC1)CCS2	-2%	-9%
O=C(Cc1ccc(Br)cc1)NCCc1ccc(Cl)cc1Cl	-4%	-16%
Cc1cc(C)c(NC(=O)/C(C#N)=C/c2ccc(OCc3ccc(F)cc3)cc2)c(C)c1	-5%	-10%
O=C1CN(C(=O)COc2ccc(Br)cc2)c2ccccc2N1	-4%	-4%
c1ccc(C[C@H]2CNCCN2CCc2cccc3ccccc23)cc1	-19%	-5%
COc1ccc(-c2nc3ccc(NC(C)=O)cc3c(=O)n2Cc2cccc(Cl)c2)cc1COc1ccc(NC(C)=O)cc1	-14%	-5%
CCOC(=O)c1c(S(=O)(=O)NCC(=O)N2CCN(c3cccc(Cl)c3)CC2)c(C)n(C)c1C	-24%	-20%
O=C(Nc1cc(S(=O)(=O)N2CCOCC2)ccc1Cl)c1ccc(=O)[nH]c1	2%	-15%
Cc1ccc(C)c(NC(=O)CSc2nnc(-c3cc4occc4n3C)n2-c2ccccc2C)c1	-24%	-23%
O=c1[nH]c(CSc2ccccn2)nc2c1oc1ccccc12	11%	-7%
